Compound activity: PubChem, National Center for Advancing Translational Sciences (NCATS)
VDR inh: vitamin D3 receptor (human) inhibition | VDR-SRC2-3 peptide fluorescence polarization, 2 h | Potency, µM, for the others: max response, negative = inhibition, actives largely listed as inhibitors | 400,000 compounds, 0.93% hits; active = well fitted inhibition curve with a large enough effect; inconclusive = small, poorly fitted or top-dose-only effect, or another doubt; inactive = no such curve, though single readings can be large or run the other way; note: series mostly up to about 120 µM
Target sequence (P11473 whole entry, looked up): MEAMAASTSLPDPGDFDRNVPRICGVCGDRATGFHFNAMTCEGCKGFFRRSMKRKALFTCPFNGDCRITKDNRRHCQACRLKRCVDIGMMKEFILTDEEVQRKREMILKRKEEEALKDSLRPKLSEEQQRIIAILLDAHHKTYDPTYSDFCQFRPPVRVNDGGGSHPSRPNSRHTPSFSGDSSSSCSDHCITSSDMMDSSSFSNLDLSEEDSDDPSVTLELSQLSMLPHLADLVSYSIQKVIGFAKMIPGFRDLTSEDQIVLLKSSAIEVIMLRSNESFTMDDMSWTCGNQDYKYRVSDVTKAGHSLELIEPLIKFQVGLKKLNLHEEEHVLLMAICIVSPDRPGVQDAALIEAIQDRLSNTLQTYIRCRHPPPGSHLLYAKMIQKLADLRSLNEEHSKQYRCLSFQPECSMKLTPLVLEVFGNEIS
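After 23 nl compound addition and a short centrifugation, plates sat for 2 hours at ambient temperature; polarization of fluorescence then indicated loss of VDR binding to peptide SRC2-3.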
Numbers without * were called inactive; ? = inconclusive; & = joins results of further samples. % is set by controls: 0 for no effect and ±100 for the full control effect; potency is the fitted concentration of half-maximal effect. A portion of the library; count on the stated rates, not on these rows.

SMILES,VDR inh
COC(=O)C1=C[C@@H](C(=O)OC)C2C3=C(C(=O)[C@@]2(C)NC(=O)c2ccccc2)[C@H](C)n2c(=O)n(C)c(=O)n2[C@@H]3C1 (some centres undefined),3.9%
Cc1ccc(-n2c(Cc3cccn3C)nnc2SCC(=O)NCc2ccc3c(c2)OCO3)cc1,-14.9%
COC(=O)[C@@]12CCCCN1[C@H](c1ccc(-c3ccc(Cl)c(Cl)c3)c(OC)c1)[C@H]1C(=O)N(C)C(=O)[C@H]12,-0.7%
CCc1ccc(C2C3=C(CCCC3=O)OC3=C2C(=O)CCC3)cc1,-6.7%
CCOC(=O)C1CCCN(Cc2nc(N)nc(Nc3ccc(C)cc3)n2)C1 (centres undefined),-1.5%
COc1ccc2c(c1)c1nnc(SCC(=O)N3C(C)CCCC3C)nc1n2C (centres undefined),-13.4%
CSc1nsc(SCC(=O)NCc2ccccc2)n1,-8.7%
Cc1c(OC(C)C(=O)NCc2cccnc2)ccc2c3c(c(=O)oc12)CCCC3 (centres undefined),-6.0%
COC(=O)c1sc(-c2ccccc2)cc1NC(C)=O,-16.6%
CCOc1ccc(OC(=O)c2cccnc2)cc1,24.8%
O=C(Cn1c(=O)oc2cccnc21)Nc1ccc(C(F)(F)F)cc1,3.0%
Cc1ccc(NC(=O)CCn2c(=O)c3cccn3c3ccccc32)cc1C,-0.2%&0.1%
O=C(c1ccccc1)N1CCC(=O)N(C(CO)Cc2ccccc2)CC1 (centres undefined),-16.8%
Cc1ccc(CN2CCc3nc(N4CCN(c5ccccc5F)CC4)ncc3C2)cc1C,17.7%
CC(=O)NC(CC(=O)NCC(=O)Nc1ccc(F)c(F)c1)c1ccccc1 (centres undefined),-8.8%
Cc1cccc(-c2nc3c4ccccc4n(CC(=O)Nc4cc(F)ccc4F)c(=O)n3n2)c1,-5.2%
c1ccc(Nc2cccc(Nc3ccccc3)c2)cc1,6.2%
O=C(CN1C(=O)c2ccccc2S1(=O)=O)NC1CCCCCC1,-5.3%
Nc1nc(SCC(=O)NCc2ccc(F)cc2)[nH]c(=O)c1NC(=O)c1ccc(Cl)cc1,3.9%
Cc1ccc(Nc2ccc(C(N)=O)cc2[N+](=O)[O-])cc1,-20.3%
CCOc1ccccc1N1CCN(CC(=O)Nc2ncc(C)s2)CC1,1.2%
Cc1ccc(Cl)cc1-n1c(=O)cc(N2CCN(c3ccc(F)cc3)CC2)[nH]c1=O,0.2%
CCN(CC(=O)NCC(=O)Nc1ccc(Br)cc1C)Cc1ccccc1,-2.6%
COC(=O)c1ccc(NC(=O)CN(C)Cc2cccc(F)c2)cc1,-2.9%
CCc1cccc(OCCn2ccnc2)c1,-14.2%
CCSc1nc(N2CCOCC2)c2ccccc2n1,?
O=C(Nc1ccc(N2CCOCC2)cc1)c1ccc2nc(-c3ccco3)c(-c3ccco3)nc2c1,13.0%
Cc1ccsc1C(=O)NNC(=O)c1csc(N2CCOCC2)n1,6.8%
COC(=O)/C(=N\OCc1ccc(C#N)cc1)c1c(C)nn(C)c1C,-13.4%
C[C@@H]1CN(S(=O)(=O)c2ccc3c(c2)OCCO3)CCN1S(=O)(=O)c1c(F)cccc1F,-8.1%
Cc1ccc(C(=O)O)cc1NS(=O)(=O)c1ccc2ccccc2c1,-13.1%
Cc1ccc(NC(=O)NNC(=O)c2ccc3c(c2)NC(=O)C(C)(C)O3)cc1,-8.2%
O=C(C1CCC1)N1CCc2cc(S(=O)(=O)NCCc3ccccc3)ccc21,-11.6%
CC1Cc2cc(S(=O)(=O)NCCC(=O)N(C)Cc3ccccc3)ccc2N1C(=O)C1CC1 (centres undefined),-27.4%
Cc1ccc2occ(CC(=O)N(Cc3ccc(Cl)cc3)Cc3ccco3)c2c1,12.6%
COc1ccc(C2C(C(=O)N3CCOCC3)c3ccccc3C(=O)N2c2ccc(OC)cc2)cc1 (centres undefined),-9.3%
CC(C)CNC(=S)N(Cc1ccco1)Cc1cc2cc3c(cc2[nH]c1=O)OCCO3,-16.5%
CC12CCC(C/C1=N/O)C2(C)C (centres undefined),-2.6%
C=CCn1c(COc2ccccc2F)nnc1SCCN1C(=O)c2ccccc2C1=O,-8.6%
CCc1nn(Cc2cccc(F)c2)c(=O)c2cc3cc(C)ccc3n12,-3.8%
COc1ccc(C2/C(=C(\O)c3ccc4c(c3)OCCO4)C(=O)C(=O)N2Cc2cccnc2)cc1OC (centres undefined),6.7%
FC(F)(F)c1ccc(NCCc2ccccc2)nc1,5.7%
Cc1ccc(/C=N/n2cc(-c3ccccc3)[nH]c2=S)s1,0.2%
CCOc1ccc(N2C(=O)/C(=C\c3ccc(OC)c(O)c3)S(=O)(=O)C2c2cccc([N+](=O)[O-])c2)cc1 (centres undefined),?
O=S1(=O)N=C(N/N=C/c2ccc(Br)o2)c2ccccc21,20.7%
CCOC(=O)C1=C(c2ccccc2)ON(C)C1c1ccccc1 (centres undefined),-24.0%
COc1ccc(N2C(=O)/C(=C/c3ccc([N+](=O)[O-])cc3)N=C2C)cc1,-7.8%
O=C(c1ccccc1)c1ncc[nH]1,1.0%
CCn1cc(C(=O)NCCCN(C)C)c(=O)c2cc(F)c(N3CCN(C)CC3)cc21,-6.2%
Clc1ccc(CSc2snnc2-c2ccccc2)cc1,5.0%
C=CCc1ccc(OCC(O)CN2CCCCC2C)c(OC)c1 (centres undefined),18.3%
CN(C)/C=C\C(=C/C(=O)C(F)(F)F)Nc1ccccc1Oc1ccccc1,13.3%
COc1ccc(C2CC(=O)c3c([nH]c(C(=O)OCc4ccccc4)c3C)C2)cc1 (centres undefined),-4.0%
Cn1cc([N+](=O)[O-])c(C(=O)Nc2ccc(C(=O)N3CCCCC3)cc2)n1,2.5%
COc1ccc(/C=N/NC(=O)c2cc3c(OC)ccc(OC)c3[nH]2)cc1O,1.0%
CCOc1cc(C2NC(=O)NC(O)(C(F)(F)F)C2C(=O)c2ccccc2)ccc1OC (centres undefined),7.6%
Cc1cc(C)c(S(=O)(=O)N2CCN(C(=O)N3CCCCC3)CC2)c(C)c1,-5.6%
CC(C)CNS(=O)(=O)c1ccc(CCC(=O)N2CCOCC2)cc1,0.5%
CS(=O)(=O)Nc1ccc(-c2cn3cccnc3n2)cc1,13.0%
CCC(C)(C(=O)NC1CCCCC1)N(C)C(=O)c1ccccn1 (centres undefined),18.9%

As a short view, part of the list above.
SMILES,VDR inh
Cc1ccc(C(=O)O)cc1NS(=O)(=O)c1ccc2ccccc2c1,-13.1%
Cc1ccc(NC(=O)NNC(=O)c2ccc3c(c2)NC(=O)C(C)(C)O3)cc1,-8.2%

Next part:
SMILES,VDR inh
Cc1ccc(-c2cc(C(F)(F)F)n3nc(C(=O)Nc4ccc(C#N)cc4)cc3n2)cc1,7.5%
Cc1cc(=O)oc2cc(Oc3ccc([N+](=O)[O-])cc3[N+](=O)[O-])ccc12,-23.5%
COC(=O)Cn1ccc2cc(S(=O)(=O)N3CCCCC3)ccc21,2.6%&1.3%
O=C(Cc1ccccc1)Nc1cccc(N2C(=O)C=CC2=O)c1,?
O=C(CSc1nc2ccc([N+](=O)[O-])cc2s1)NCC1CCCO1 (centres undefined),0.0%
CC(C)C1Cc2c(C#N)c(N)sc(=S)c2CO1 (centres undefined),?
CC(=O)Nc1ccc(S(=O)(=O)NNC(=O)CCC(=O)Nc2cc(C)ccc2C)cc1,-4.3%
COc1ccc(S(=O)(=O)Nc2cc(C)c(O)c(S(=O)(=O)c3ccccc3)c2)cc1,-5.9%
COc1cc(O)c2c(=O)c3c(O[C@H]4O[C@@H](CO)[C@H](O)[C@@H](O)[C@@H]4O)ccc(O)c3oc2c1,-7.1%
Cc1ccc2nc(NC(=O)CSCC(=O)OCC(=O)c3ccc(Br)cc3)sc2c1,?
CC(=O)c1cnc2cc(-c3ccccc3)nn2c1C,3.4%
CCOc1ccc(/C=C/c2nc(C#N)c(NCCCOC)o2)cc1,-22.4%
CCOC(=O)c1ccc(NC(=O)c2cc(OC)c(OC)c(OC)c2Br)cc1,6.1%
COc1cc(-c2nc3ccccn3c2NCc2ccccc2)ccc1SC1CCCCC1,-18.8%
COc1cc(-c2coc3cc(OC)c(OC)c(OC)c3c2=O)cc(OC)c1OC,1.2%
O=C(c1ccncc1)N1CCN(c2cccc(C(F)(F)F)c2)CC1,6.3%
CCc1ccc2[nH]c3nc(N/N=C/c4cccc(O)c4)nnc3c2c1,-20.5%
Cc1ccc(CN(C(=O)COc2ccc(C)c(C)c2)C2CCS(=O)(=O)C2)o1 (centres undefined),-27.1%&11.5%
O=C(Nc1cnn(Cc2ccc(Cl)cc2)c1)c1cnccn1,6.3%
CC1CCCCN1CCNC(=O)CC1Oc2ccccc2NC1=O (centres undefined),-7.9%
CCOC(=O)c1c(C)oc2cc(Br)c(OCC(N)=O)cc12,-8.4%
COc1ccccc1/C=C/C(=O)NCC(=O)N/N=C/c1ccccc1,14.4%
Cc1ccc2sc(NNC(=O)C3COc4ccccc4O3)nc2c1C (centres undefined),-21.9%
COc1ccc(-n2c(=O)/c(=C\c3cccs3)s/c2=C(/C#N)C(=O)NCCN2CCOCC2)cc1,4.4%
COC(=O)c1cccc(NC(=O)Cc2ccccc2[N+](=O)[O-])c1C,3.5%
COc1cccc(NC(=O)C2CCCN2C(=O)NC2CCCCC2)c1 (centres undefined),11.0%
COCCCNC(=O)C(C#N)c1nc2ccccc2nc1N1CCCC1 (centres undefined),3.0%
COc1cccc(CNS(=O)(=O)c2ccc(N3CCCCS3(=O)=O)cc2)c1,11.3%
O=C(CSc1nc(-c2ccco2)cc(C(F)(F)F)n1)NN1CCOCC1,9.3%
COC(=O)NCc1cccc(CNC(=O)OC)c1,9.2%
CCOC(=O)Nc1cc(N)ncn1,1.7%
O=C(C1=C[C@@H](c2coc3ccccc3c2=O)C[C@@H](OCCCCO)O1)N1CCN(Cc2ccccc2)CC1,8.0%
COC(=O)Cn1cc(C(=O)C(F)(F)F)c2ccccc21,9.9%
COc1cccc(-c2nc(SCc3cc(=O)c4ccc(C)c(C)c4[nH]3)n[nH]2)c1,13.7%
Cc1ccc(-c2onc3ccc(Cl)cc23)cc1,0.9%
O=C(COC(=O)c1ccc(Cl)c(S(=O)(=O)N2CCCC2)c1)NCc1ccccc1,-9.4%
O=C(c1ccc(Br)cc1)N1CCC(C(=O)N2CCN(Cc3ccccc3)CC2)CC1,-13.0%
Brc1ccc2c(c1)CN1CCCC1=N2,-3.1%
COc1ccc(S(=O)(=O)N2CCOC23CCN(S(=O)(=O)c2cccs2)CC3)cc1,-2.3%
Cc1nnc(N(C(=O)c2cnccn2)c2ccccc2)s1,-4.7%
COC(=O)CC[C@@H](C(=O)O)N1C(=O)c2ccccc2C1=O,-4.8%
CC(=O)Nc1ccc(NC(=O)COC(=O)Cc2cccs2)cc1,8.4%
Cc1ccnc(NS(=O)(=O)c2ccc(NS(=O)(=O)c3ccc(Br)cc3)cc2)n1,-2.6%
CC(C)C[C@H](NC(=O)[C@H](Cc1ccccc1)n1c(=O)[nH]c2ccccc2c1=O)C(=O)N1CCC(C(=O)O)CC1,-15.8%
Cc1noc(C(=O)Nc2c(C)n(C)n(-c3ccccc3)c2=O)c1Cl,-2.7%
Cc1ccccc1C1c2[nH]c3ccccc3c2CCN1CCCn1cccn1 (centres undefined),15.5%
CN(CC(=O)Nc1cccc(F)c1)CC(=O)Nc1ccccc1Oc1ccccc1,-10.0%
O=S1(=O)c2cccc3cccc(c23)N1Cc1nnc(-c2ccccc2Br)o1,4.7%
COc1ccc(C(=O)N2CCN(Cc3cc(=O)n4nc(-c5ccccc5C)sc4n3)CC2)cc1OC,6.3%
Cc1oc(-c2cccs2)nc1CN1CCN(CC(C)C)C(CCO)C1 (centres undefined),4.3%
O=C(NCc1ccccn1)c1ccc2ccccc2n1,2.5%
NC(=O)c1c(NC(=O)Cn2cc([N+](=O)[O-])cn2)sc2c1CCCC2,-4.4%
CCn1c(Cc2ccc(OC)cc2)nc2ccccc21,5.7%
O=C(CN1CCOCC1)Nc1ccc(Br)cc1,-9.1%
O=C(CN1C(=O)C2CCCCC2C1=O)Nc1cccc(C(F)(F)F)c1 (centres undefined),-21.2%
COc1ccc(C(=O)NCc2nnc(SCC(=O)Nc3cc(C)cc(C)c3)o2)cc1OC,-6.0%
COC(=O)c1ccccc1NC(=S)NC(=O)C1CC1,2.3%
COc1ccc(S(=O)(=O)Nc2nc3ccccc3nc2NCC2CCCO2)cc1 (centres undefined),2.7%
CCCCCC/C(=N\NS(C)(=O)=O)c1ccccc1,-4.9%
COc1ccc(C2(C)NC(=O)N(CC(=O)Nc3ccc(Br)c(C)c3)C2=O)cc1OC (centres undefined),-17.5%

Additional records follow.
SMILES,VDR inh
CCOc1ccc(NC(=O)CN(C)C(=O)C2(c3ccccc3)CC2)cc1OCC,-7.6%
Cc1ccc(C2=NNC(=O)C(P(=O)(c3ccccc3)c3ccccc3)C2)cc1 (centres undefined),-8.2%
CCCCNC(=O)CCCn1c(=O)c2ccccc2n(Cc2cccc(Cl)c2)c1=O,1.7%
O=C1/C(=C/c2ccccc2)CCc2ccc(Cl)nc21,50.1µM*
